VACV mCherry inh: qHTS for Stage-Specific Inhibitors of Vaccinia Orthopoxvirus: mCherry Reporter Primary qHTS; Vaccinia virus mCherry reporter infection, fluorescence; about a quarter of the inactives have no number; Potency, µM (series often up to 36.5 µM), without a hit: at the highest dose activity change, negative = inhibition, hits mostly inhibitors; actives 0.63% (n = 310,000); active = well fitted inhibition curve with a large enough effect; inconclusive = small, poorly fitted or top-dose-only effect; inactive = no such curve, though single readings can be large or run the other way; tested in A549 cells; further: nearly all actives have a fitted effect of over 35% in size; inactives centre near -10
VACV Venus inh: qHTS for Stage-Specific Inhibitors of Vaccinia Orthopoxvirus: Venus Reporter Primary qHTS; actives 0.46% (n = 330,000); Vaccinia virus Venus reporter expression, fluorescence; Potency, µM (top dose mostly 36.5 µM), for the others: at the highest dose activity change, negative = inhibition, hits mostly inhibitors; active means well fitted inhibition curve with a large enough effect; inconclusive means small, poorly fitted or top-dose-only effect; inactive means no such curve, though single readings can be large or run the other way; tested in A549 cells; further: nearly all actives have a fitted effect of over 30% in size; inactives centre near -10
Starred values were filed as active, the others as inactive; i = inactive; ? = inconclusive; / = not tested or not shown; [ ] = dose if it differs, or a comment. On the % scale 0 is the no-effect control and ±100 the full control effect; potency means the concentration at half of the fitted maximal effect.

SMILES | VACV mCherry inh | VACV Venus inh
COc1ccccc1-c1nnn(C/C(N)=N/O)n1 | -10% | -21%
COc1ccc(CCNC2CCCCCC2)cc1 | -25% | -20%
COc1ccc(CN2CC(C(=O)N3CCOCC3)CC2=O)cc1 (stereo not given) | / | -7%
CCOc1ccc(OCC(=O)OCc2csc(CC(=O)Nc3ccccc3C)n2)cc1 | i | -6%
CC(C)(C)OC(=O)N1CCOCCOCCNCCOCCOCC1 | / | -19%
CCN(c1ccc(C)cc1C)S(=O)(=O)c1nnc(NC(=O)c2ccccc2OC)s1 | -6% | -11%
COc1ccc(NC(=O)Cn2c(=O)n(CCc3ccccc3)c(=O)c3c4c(sc32)CCCC4)cc1 | -15% | -18%
O=c1oc2ccccc2cc1-c1cn2cc(Cc3ccc(Br)cc3)sc2n1 | -19% | -18%
CCn1c(C(Cc2ccccc2)NC(=O)COC)nc2ccccc21 (stereo not given) | 0% | -10%
COC(=O)CN1C(=O)CSc2ccc(S(=O)(=O)N3CCOCC3)cc21 | -6% | 5%
CCOc1ccc(CCN2C(=O)C(=O)N([C@@H](CC(C)C)CN3CCC[C@H]3CN3C(=O)C(=O)NC[C@@H]3CC(C)C)C[C@@H]2Cc2ccc(O)cc2)cc1 | -6% | -3%
COc1ccc(C(=O)C2CCCN(CC3CCCCC3)C2)cc1OC (stereo not given) | 15% | 4%
CCOc1ccc(/C=C(/C#N)c2nnc(N3CCOCC3)n2-c2ccccc2)cc1OC | 3% | -2%
Cc1ccc(Sc2ncccc2N)cc1 | -2% | -12%
COc1ccc(-c2cc(C(=O)Oc3cccc(C)c3)c3cc(C)ccc3n2)cc1 | -11% | 4%
O=C(NCCc1ccc(O)c(Br)c1)c1ccc(Br)o1 | -11% | -14%
O=[N+]([O-])c1cc(/C=N/Nc2nc3ccccc3[nH]2)c(O)cc1O | 2.8µM* | ?
CCN(CC)CCCN1C(=O)C(=O)/C(=C(/O)c2ccc(OC)cc2)C1c1ccco1 (stereo not given) | -3% | -10%
Cc1onc(-c2ccccc2Cl)c1C(=O)N1CCN(c2ccc(F)cc2)CC1 | -28% | 0%
Cc1ccc(CCNC(=O)CNS(=O)(=O)c2ccc3nc(C)sc3c2)cc1 | i[7.34 µM] | -10%[7.34 µM]
Cn1c(CN2CCCCC2)nc2cc(NS(=O)(=O)c3ccc(Cl)cc3)ccc21 | -15% | -23%
Cc1cccc(NC(=O)CSc2nnc(CSc3nc(C)cc(C)n3)n2Cc2ccco2)c1 | -15% | -1%
CSc1c(C#N)sc(=S)n1-c1ccc(C)cc1 | -2% | 4%
CCN(Cc1ccccc1)C(=O)Nc1ccc2c(c1)N(C)C(=O)c1ccccc1S2 | -5% | -7%

Three structures already listed, arranged by molecular weight, smallest number first:
SMILES | VACV mCherry inh | VACV Venus inh
Cc1ccc(CCNC(=O)CNS(=O)(=O)c2ccc3nc(C)sc3c2)cc1 | i[7.34 µM] | -10%[7.34 µM]
CCN(Cc1ccccc1)C(=O)Nc1ccc2c(c1)N(C)C(=O)c1ccccc1S2 | -5% | -7%
Cn1c(CN2CCCCC2)nc2cc(NS(=O)(=O)c3ccc(Cl)cc3)ccc21 | -15% | -23%

Next compounds:
SMILES | VACV mCherry inh | VACV Venus inh
CC(OC(=O)c1ccccc1Br)C(=O)Nc1nc(-c2cccc([N+](=O)[O-])c2)cs1 (stereo not given) | -2% | -1%
Nc1nc(SCc2cccnc2)c2ncn(C3OC(CO)C(O)C3O)c2n1 (stereo not given) | -4% | 11%
CCCC(C)NC(=O)c1cc(C(=O)OC)cc([N+](=O)[O-])c1 (stereo not given) | i | -4%
Cc1ccc(S(=O)(=O)N2[C@@H](CO)CO[C@H]2CC(=O)c2ccccc2)cc1 | -9% | 9%
CSc1ccc(C(O)c2ncc(-c3cccc(OCc4ccccc4)c3)[nH]2)cc1 (stereo not given) | 26% | 1%
COc1ccc(-n2c(SCC#N)nnc2-c2cccnc2)cc1 | -10% | -1%
COC(=O)CSc1ncc2c(n1)-c1ccccc1N(Cc1ccc(Cl)cc1)S2(=O)=O | -5% | 8%
CN(CCNC(=O)C1CCC(=O)N(Cc2ccc(Cl)cc2)C1)CCc1ccccc1 (stereo not given) | -18% | -12%
CCn1cc(S(=O)(=O)c2ccc(Cl)cc2)c(=O)c2cc(OC)ccc21 | -5%[7.34 µM] | 4%[7.34 µM]
COc1ccc(CCNc2ncnc3[nH]ncc23)cc1OC | -23% | -16%
O=C(COC(=O)Cc1cccc(C(F)(F)F)c1)Nc1ccc2[nH]c(=O)[nH]c2c1 | i | -18%
c1csc(C(c2nnnn2C2CCCC2)N2CCOCC2)c1 (stereo not given) | / | -21%

Pulled by compound from the entries so far, 3 records:
SMILES | VACV mCherry inh | VACV Venus inh
Nc1nc(SCc2cccnc2)c2ncn(C3OC(CO)C(O)C3O)c2n1 (stereo not given) | -4% | 11%
O=C(COC(=O)Cc1cccc(C(F)(F)F)c1)Nc1ccc2[nH]c(=O)[nH]c2c1 | i | -18%
COc1ccc(CCNc2ncnc3[nH]ncc23)cc1OC | -23% | -16%

Next section.
SMILES | VACV mCherry inh | VACV Venus inh
COC(=O)c1cc2sc(Cl)cc2n1CC(=O)Nc1cc(OC)cc(OC)c1 | -27% | -23%
CC(C)C(=O)Nc1cccc(COc2ccc(CN(CCc3ccccc3)C(=O)OC(C)(C)C)cc2)c1 | i | -20%
Cc1ccc2c(c1)c(=O)c1ccccc1n2CCCC(=O)Nc1ccc(C)c(C)c1 | ? | -29%
Nc1ncnc(Oc2ccccc2F)c1[N+](=O)[O-] | -19% | -17%
CCc1nc2ccc(C(=O)NCc3ccc(N(C)C)cc3)cc2nc1CC | -14% | -15%
COC(=O)c1c(NC(=O)CSc2nnc3ccccn23)sc2c1CCC2 | -23% | -11%
CC(C)c1ccc(Nc2nc(Cl)nc(NCc3ccco3)n2)cc1 | ? | ?
CC(C)OCCCNc1nc(Cl)nc2c1cnn2C | -19% | -11%
Cc1ccc(CNC(=O)Cn2c(=O)n(Cc3ccccc3)c(=O)c3sc4ccccc4c32)cc1 | ? | ?
O=C(Nc1cccc(S(=O)(=O)N2CCCC2)c1)[C@H]1C[C@H](O)[C@@H](CO)O1 | -4% | -3%
COc1ccccc1C1CCN(Cc2ccccc2Cl)CC1 | -13% | -7%
O=C(CC1SC(=O)NC1=O)Nc1ccc(Cl)cc1 (stereo not given) | i | 11%

Laid out differently: 7 of the compounds above
Below each SMILES: VACV mCherry inh | VACV Venus inh
> CC(C)C(=O)Nc1cccc(COc2ccc(CN(CCc3ccccc3)C(=O)OC(C)(C)C)cc2)c1
→ i | -20%
> O=C(CC1SC(=O)NC1=O)Nc1ccc(Cl)cc1 (stereo not given)
→ i | 11%
> Nc1ncnc(Oc2ccccc2F)c1[N+](=O)[O-]
→ -19% | -17%
> CC(C)OCCCNc1nc(Cl)nc2c1cnn2C
→ -19% | -11%
> COC(=O)c1c(NC(=O)CSc2nnc3ccccn23)sc2c1CCC2
→ -23% | -11%
> CC(C)c1ccc(Nc2nc(Cl)nc(NCc3ccco3)n2)cc1
→ ? | ?
> Cc1ccc(CNC(=O)Cn2c(=O)n(Cc3ccccc3)c(=O)c3sc4ccccc4c32)cc1
→ ? | ?

Further entries.
SMILES | VACV mCherry inh | VACV Venus inh
Cc1cccc(Nc2ccccc2)c1 | / | -12%
N#Cc1c(-c2ccc(F)cc2)c2c([nH]c1=O)-c1ccccc1OC2 | -20% | -8%
O=C(Nc1nnc(C(F)(F)F)s1)c1ccc(Br)s1 | 10µM* | ?
CC(C)C(Sc1nc(-c2ccccc2)cc(-c2ccccc2)c1C#N)C(=O)O (stereo not given) | -18% | -15%
COc1ccccc1CCNC(=O)CCC(=O)N1CC2C[C@@H](C1)Cn1c2cccc1=O | -8% | -4%
O=C(NCC1CCN(Cc2ccccc2Cl)CC1)c1cc2ccc3cccnc3c2[nH]1 | -23% | -11%
CSCCC(NC(=O)c1ccc(Cl)cc1)C(=O)OCC(C)=O (stereo not given) | -1% | -14%
COc1cccc(/C=C2\SC(=S)N(C(Cc3ccccc3)C(=O)O)C2=O)c1 (stereo not given) | i | -17%
N/C(CS(=O)(=O)c1ccc(F)cc1)=N\O | -7% | -10%
CC(C)C1Cc2[nH]c(=S)[nH]c(=O)c2C(c2ccc(Cl)cc2)O1 (stereo not given) | i | 0%
Cc1cccc(-c2noc(CCCC(=O)NC3CCCCC3)n2)c1 | 9% | 3%
COc1ccc(NC(=O)CSc2nnc(-c3cccs3)n2N)cc1S(N)(=O)=O | -4% | 22%
Cn1nc(C(C)(C)C)cc1NC(=O)C1(C)CCN1C(=O)c1ccccc1CCc1ccccc1 (stereo not given) | i | -6%
Cc1cc(C)c(NC(=O)COC(=O)c2cc([N+](=O)[O-])ccc2N2CCOCC2)c(C)c1 | -15% | -12%
C=CCOc1c(CCC)cc(CCC)cc1C(N)=O | -13% | -17%
Cc1noc(C)c1S(=O)(=O)N1CCCC(C(=O)NCCc2ccccc2)C1 (stereo not given) | -9% | -10%
COc1ccccc1NC(=O)COC(=O)c1cnc(C)cn1 | -15% | -10%
O=C(CNC(=O)c1ccc(F)cc1)Nc1ccccc1C(F)(F)F | -12% | 0%
COc1ccc(OC)c(C2NC(=O)NC(C)=C2C(=O)Nc2ccc(C)cc2)c1 (stereo not given) | i | -11%
CC1CN(c2nc(Nc3ccccc3F)nc(N)c2[N+](=O)[O-])CC(C)O1 (stereo not given) | ? | -21%
Cc1cccc(CN2CCCC(C(=O)Nc3ccccc3Oc3cccnc3)C2)c1 (stereo not given) | i | -5%
O=C(Nc1ccc(C(=O)NC2CCCCC2)cc1)c1cccnc1 | -5% | -7%
Cc1nnc(NC(=O)c2cccn(Cc3cccc(F)c3)c2=O)s1 | -4% | -2%
Cn1c(SCC(=O)NC2CC2)nnc1-c1ccco1 | -9% | 1%

Entries from the list above containing bromine (four):
SMILES | VACV mCherry inh | VACV Venus inh
O=c1oc2ccccc2cc1-c1cn2cc(Cc3ccc(Br)cc3)sc2n1 | -19% | -18%
O=C(NCCc1ccc(O)c(Br)c1)c1ccc(Br)o1 | -11% | -14%
CC(OC(=O)c1ccccc1Br)C(=O)Nc1nc(-c2cccc([N+](=O)[O-])c2)cs1 (stereo not given) | -2% | -1%
O=C(Nc1nnc(C(F)(F)F)s1)c1ccc(Br)s1 | 10µM* | ?

The results go on:
SMILES | VACV mCherry inh | VACV Venus inh
Cc1c2cnn(-c3ccccc3)c(=O)c2c(C)n1CC(=O)NCc1ccccc1Br | -8% | -7%
COc1ccccc1NC(=O)c1c(NCc2sccc2C)sc2c1CCCCC2 | -11%[7.34 µM] | 3%[7.34 µM]
COc1ccccc1CNC(=O)Cn1c(-c2cccs2)cc2cc(F)ccc21 | -7% | 5%
COC(=O)c1ccc(NC(=O)CN2CCN(CC#N)CC2)cc1 | -9% | -11%
C=CCN(C(C)=O)C1CC(=O)N(c2ccc(OCCC)cc2)C1=O (stereo not given) | / | 13%
O=C(NCc1cccs1)c1ccc(N2CCCCC2)nc1 | -10% | ?
COc1ccc(CNC(=O)c2ccc[nH]2)cc1 | -20% | -5%
CC1=C(C(=O)N2CCOCC2)CC(CC(=O)NCC2CCCCC2)C(=O)N1CCCN1CCCC1=O (stereo not given) | -3% | -9%
COc1ccc(N2CC(C(=O)N3CCOCC3)CC2=O)cc1 (stereo not given) | i | 0%
O=C(NC1CCCC1)c1cnc2n(c1=O)CCS2 | -9% | -6%
Cc1ccnc(N2CCC(C(=O)NNC(=O)c3ccccc3C)CC2)n1 | i | -8%
CCC[C@H]1NC(=O)[C@H](C)N(C)C(=O)C(C)(C)C(=O)C(C)NC(=O)[C@H](Cc2ccc(OC)cc2)N(C)C(=O)[C@H](C(C)C)N(C)C(=O)CNC(=O)[C@H](CC(C)C)N(C)C(=O)CNC(=O)[C@H]([C@@H](C)CC)OC(=O)[C@H]1C (stereo not given in full) | ? | 0.32µM*
O=C(C1CCCCC1)N1C[C@H](O)[C@@H](n2cc(C3CC3)nn2)C[C@@H]1c1ccccc1 | -3% | -5%
Cc1ccc(N2CCn3c2nc2c3c(=O)n(C/C=C/c3ccccc3)c(=O)n2C)cc1C | -20% | -13%
